# FGF22 binding = FGF22 (human) thermal shift binding. recombinant FGF22 thermal shift, SYPRO orange fluorescence; percent of sucrose octasulfate shift, DMSO zero. calls only at 9.99 µM. actives 1.5% (n = 340,000);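 active means melting point raised past a set limit in the mean and every replicate; inconclusive means no clear call; three in four hits are not shown here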
# Target sequence (Q9HCT0 whole entry, looked up): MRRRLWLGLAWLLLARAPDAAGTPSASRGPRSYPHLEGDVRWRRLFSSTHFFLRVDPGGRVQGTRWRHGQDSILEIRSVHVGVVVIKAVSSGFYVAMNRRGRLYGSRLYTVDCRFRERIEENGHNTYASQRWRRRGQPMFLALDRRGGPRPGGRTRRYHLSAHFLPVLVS
# AF4-AF9 inh = inhibitors of human MLL-AF4/AF9 interaction. inhibition, % at 10 µM. P42568. AID 651704. actives 0.47% (n = 350,000). AlphaScreen, biotin-AF4 peptide binding to FLAG-AF9;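 active means every replicate reaching a set inhibition limit, whatever the replicate mean, cut at about 25% in these data; inconclusive means mean inhibition reaches that limit but some replicates miss it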;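 further: 0% = plate neutral control median and 100% = total signal loss; the record names both 10 and 1 µM as test concentration; the first replicate is given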
# Target sequence (P42568 whole entry, looked up): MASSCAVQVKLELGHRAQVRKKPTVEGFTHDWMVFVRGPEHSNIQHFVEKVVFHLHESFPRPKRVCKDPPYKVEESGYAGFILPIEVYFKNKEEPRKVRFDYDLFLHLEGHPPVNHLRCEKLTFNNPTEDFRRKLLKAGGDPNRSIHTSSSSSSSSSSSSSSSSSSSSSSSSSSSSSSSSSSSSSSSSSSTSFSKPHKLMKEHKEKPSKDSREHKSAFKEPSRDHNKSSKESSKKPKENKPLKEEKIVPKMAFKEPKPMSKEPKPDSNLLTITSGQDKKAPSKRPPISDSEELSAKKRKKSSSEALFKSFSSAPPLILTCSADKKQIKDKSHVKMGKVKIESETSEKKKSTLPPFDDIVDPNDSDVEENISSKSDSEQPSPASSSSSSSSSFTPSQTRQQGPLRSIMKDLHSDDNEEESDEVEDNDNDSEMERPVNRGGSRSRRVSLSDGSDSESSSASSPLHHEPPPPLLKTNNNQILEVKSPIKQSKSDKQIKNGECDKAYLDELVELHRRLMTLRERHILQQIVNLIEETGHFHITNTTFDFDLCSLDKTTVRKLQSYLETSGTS
# E coli growth = blocks Escherichia coli growth. actives 0.21% (n = 330,000). OD600, 23 h; hits give low values. OD600 absorbance (test concentration not listed);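 active means OD600 absorbance below the run mean of sample wells minus 3.6 SD, in any replicate, cut at about 0.56 in these data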;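 further: stock transfer was 300 nL into about 60 µL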
# Ecoli rRNA inh = inhibits bacterial ribosomal RNA function over humanized ribosomes | E. coli WT GFP vs humanized-ribosome RFP mutants, fluorescence, 24 h; hits give low values; DMSO median 0, no signal -100 | GFP signal change (wild-type ribosome), % (concentration not given with the values) | actives 1.6% (n = 350,000) | AID 720706;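 active means significant combined selectivity score with lowered wild-type GFP, culture density cut under 30%, mutant RFP and density less affected; inactive means any of these conditions unmet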; further: one replicate is shown; some compounds called inactive have numbers as strong as hits
# T cruzi inh = T. cruzi replication inhibition. AID 1885. actives 1.4% (n = 300,000). T. cruzi beta-gal in NIH3T3, luminescence, 90 h. inhibition, % (test concentration not listed);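 active means mean inhibition across valid replicates above about 55%, limit read from the data; inconclusive means mean below that limit but half or more replicates reach it; inactive means mean below it, under half of replicates reach it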;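 further: signal also drops with host cell toxicity which is not excluded here; 0% = plate median of DMSO wells and 100% = zero luminescence signal; higher percent means less beta-gal luminescence so fewer parasites; stock transfer was 50 nL into about 50 µL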
# Beta cell apopt = beta cell apoptosis inhibition; protection from apoptosis, % (concentration not given with the values); INS-1E cytokine-induced death, ATP luminescence, 48 h; percent of positive-control rescue, neutral wells zero; AID 435005; actives 0.8% (n = 300,000);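 active means all replicates at 75% or more, or half of them and the mean; inconclusive means half reach 75% but not the mean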;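 further: 0% = cytokine-treated negative control wells and 100% = positive control rescue; higher means more ATP so stronger rescue from cytokine killing; wells of about 40 µL received 100 nL stock; the first replicate is given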
# UCH37 DUB inh = inhibitors of human deubiquitinating enzyme UCH37. Q9Y5K5. purified proteasome/UCH37, Ub-AMC cleavage fluorescence. inhibition, % (concentration not given with the values). actives 0.33% (n = 330,000). AID 588478;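 active means mean of two replicates above 20%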;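 further: 0% = compound-free wells with enzyme and 100% = wells lacking proteasome; stock transfer was 100 nL into about 20 µL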
# Target sequence (Q9Y5K5 whole entry, looked up): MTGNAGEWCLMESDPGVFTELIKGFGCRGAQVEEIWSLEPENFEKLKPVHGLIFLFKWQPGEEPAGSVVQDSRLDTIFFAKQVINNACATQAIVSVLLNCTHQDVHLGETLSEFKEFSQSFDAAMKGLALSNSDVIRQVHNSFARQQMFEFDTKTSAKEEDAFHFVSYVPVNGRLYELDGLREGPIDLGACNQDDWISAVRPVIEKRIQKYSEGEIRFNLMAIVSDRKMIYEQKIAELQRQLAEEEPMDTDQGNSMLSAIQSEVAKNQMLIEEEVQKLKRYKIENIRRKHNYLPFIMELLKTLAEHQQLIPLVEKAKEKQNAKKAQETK
#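 Test system – human UCH37 enzyme supplied as purified proteasome complex · Incubation – 30 min preincubation with enzyme, 25 min cleavage at room temperature · Detection – AMC fluorescence from Ub-AMC cleavage, excitation 355 nm, emission 460 nm · Benchmarks – no-proteasome wells (full inhibition) and compound-free wells (no inhibition)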
# A1 inh = inhibitors of the anti-apoptotic protein A1, read as caspase activation | MEF A1-2A-BIM cells, Caspase-Glo 3/7 luminescence, 3 h; percent of clofoctol response, vehicle zero | caspase activation, % (concentration not given with the values) | actives 0.066% (n = 330,000);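 active means over half of replicate activation scores above 10%, or exactly half above 10 with the replicate mean above 10; inconclusive means replicate mean below 10 yet half the replicates above 10; inactive means over half of replicates below 10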;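 further: wells of about 30 µL received 50 nL stock; many hits fall short of the cut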
# Ecoli rRNA inh OD600 = further read-out of Ecoli rRNA inh, marked with its call; OD600 change, %; measured here: OD600 growth;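 optical density of the mix in the first replicate; 0 = DMSO median and -100 = no signal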
# Ecoli rRNA inh RFP = second read-out of Ecoli rRNA inh, no call of its own (marks repeat the call); RFP signal change, %; measured here: RFP humanized mutant strains;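 first replicate; 0 = DMSO median and -100 = no signal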
# An asterisk follows results filed as active; i = inactive; u = inconclusive; x = no result given; & = joins results of further samples.
# A first look (4 entries):
SMILES,FGF22 binding,AF4-AF9 inh,E coli growth,Ecoli rRNA inh,Ecoli rRNA inh OD600,Ecoli rRNA inh RFP,T cruzi inh,Beta cell apopt,UCH37 DUB inh,A1 inh
Cc1ccc(CNc2ccc3c(c2)ncn3C)cc1,x,x,0.6,x,x,x,8,-2,-8.8,0.8
O=C(Nc1cc(S(=O)(=O)N2CCOCC2)ccc1O)c1ccco1,x,x,0.66,x,x,x,1,-6,4.7,-0.6
COc1ccccc1N1CCN(C(=O)c2cc(-c3ccc(Br)cc3)on2)CC1,i,3.4,0.71,-1,-4,-2.0,1,-2,1.7,0.0
O=C(c1cc(-c2ccccc2)on1)N1CCCCCC1,i,0.4,0.64,-6,-12,-1.3,15,-2,2.9,-0.9

# This part in full (from the top)
SMILES,FGF22 binding,AF4-AF9 inh,E coli growth,Ecoli rRNA inh,Ecoli rRNA inh OD600,Ecoli rRNA inh RFP,T cruzi inh,Beta cell apopt,UCH37 DUB inh,A1 inh
Cc1ccc(CNc2ccc3c(c2)ncn3C)cc1,x,x,0.6,x,x,x,8,-2,-8.8,0.8
O=C(Nc1cc(S(=O)(=O)N2CCOCC2)ccc1O)c1ccco1,x,x,0.66,x,x,x,1,-6,4.7,-0.6
COc1ccccc1N1CCN(C(=O)c2cc(-c3ccc(Br)cc3)on2)CC1,i,3.4,0.71,-1,-4,-2.0,1,-2,1.7,0.0
O=C(c1cc(-c2ccccc2)on1)N1CCCCCC1,i,0.4,0.64,-6,-12,-1.3,15,-2,2.9,-0.9
Cc1ccc(-c2nc(CS(=O)CC(=O)NCCN3CCCCCC3)c(C)o2)cc1 (centres undefined),i,15,0.7,14,15,1.0,11,-5,2.8,-0.3
CCOc1ccccc1NC(=O)CCC(=O)Nc1ccc2nc(N3CCN(C)CC3)cc(C)c2c1,x,x,0.72,x,x,x,39,2,-96,0.1
Cc1cc(-n2c(C)cc(C(=O)CSc3nc4ccccc4c(=O)n3Cc3ccco3)c2C)no1,x,x,0.74,x,x,x,-8,5,0.6,0.0
CCOc1ccc(N(CC)C(=O)CCNC(=O)Cn2ccc3ccccc3c2=O)cc1,x,x,0.71,x,x,x,-7,x,2.9,0.4
COCCCN(C(=O)CCOc1ccc(C)cc1)c1c(N)n(Cc2ccccc2)c(=O)[nH]c1=O,i,0.3,0.62,4,9,-0.5,5,x,-1.9,-0.2
O=C(CC1OC(=O)c2ccccc21)Nc1cc(Cl)ccc1N1CCOCC1 (centres undefined),i,0.5,0.69,7,10,5.5,x,8,0.0,1.3
CCCCCCCc1c(C#N)c(N)[nH]c(=S)c1C#N,i,-4.8,0.65,-33,-28,-6.6,8,-1,11,-0.3
C=CCNC(=O)c1cccc2c1C(=O)c1ccc(N3CCCC3)cc1S2(=O)=O,i,3.2,0.69,2,2,-5.0,x,-2,3.7,0.5
CC1(C)CC(=O)C(c2c[nH]c3ccccc23)C(=O)C1,i,-0.2,0.66,6,10,2.1,-7,1,-0.7,0.0
COc1ccc(CN2C3CCCC2CC(NC(=O)/C=C/c2ccccc2)C3)cc1 (centres undefined),i,3.0,0.74,4,-6,-5.7,12,-2,1.5,1.4
CNc1ccccc1C(C)(C)c1ccn[nH]1,i,0.0,0.73,3,0,2.4,5,-2,4.2,0.0
O=C(OC1CCOC1=O)c1cc(-c2cccs2)nc2ccccc12 (centres undefined),i,1.7,0.7,12,9,0.3,-5,3,-248,-1.5
COc1ccc(C2NC(=O)C(C)S2)cc1 (centres undefined),x,x,0.73,15,8,-1.0,-40,-4,4.0,-0.1
C#CCSc1ncc(-c2ccccc2)cn1,i,-6.4,0.63,-6,6,-2.5,7,x,-0.9,-3.9
O=C(c1ccc2ccccc2c1)C1CCCN(C(=O)c2noc3c2CCCC3)C1 (centres undefined),i,-8.2,0.72,-11,-28,0.8,18,0,1.0,0.3
C[C@@H]1CN([C@H](C)CO)C(=O)Cc2cc(NC(=O)Nc3ccccc3)ccc2O[C@@H]1CN(C)C(=O)Nc1ccc2c(c1)OCO2,i,12,x,2&2,2&2,0.4&-1.2,x,-2,2.4,-0.4
COc1ccc(OC)c(NC(=O)CSc2ccc(-c3cccnc3)nn2)c1,i,-0.3,0.69,-3,-6,0.1,-1,38,1.3,u
Cc1ccc(C(=O)OCC(=O)c2c[nH]c3ccccc23)cc1,i,1.0,0.74,4,-9,2.5,-6,-1,3.7,-2.0
O=C(c1ccco1)N1CCN(Cc2cccc(C(F)(F)F)c2)CC1,i,3.4,0.66,-9,-2,-1.3,-4,-2,-0.8,0.0
Cc1cccc(Oc2nc3ccccn3c(=O)c2/C=C(\C#N)C(=O)NC2CCS(=O)(=O)C2)c1C (centres undefined),i,-1.1,0.68,11,13,7.3,-12,-6,-55,-0.8
COc1ccc(NC(=O)C(=O)NCC2CCCN2S(=O)(=O)c2ccc(C)cc2)cc1 (centres undefined),i,-1.4,0.61,-12,-18,-0.6,33,x,-4.1,0.5
CCC(=O)c1ccc(N2CCN(S(=O)(=O)c3ccccc3)CC2)c(F)c1,x,-1.3,0.69,22,7,0.9,-10,0,1.2,0.0
COc1ccc(C(=O)Nc2nc(C)c(C)s2)cc1OC,x,x,0.73,x,x,x,-16,4,3.7,-3.7
CC(C)NC(=O)NC(=O)COC(=O)c1ccc([N+](=O)[O-])cc1Cl,i,1.1,0.61,4,9,-1.2,-6,-2,-2.0,0.5
CCOc1ccc(C(=O)NCC(=O)OCc2cc(C(C)=O)ccc2OC)cc1,i,2.7,0.71,-13,-17,-3.0,0,-6,1.9,0.2
O=C(Nc1ccc(S(=O)(=O)N2CCCCC2)cc1)C1CCN(C(=O)c2ccc(F)cc2)CC1,i,2.4,0.72,-3,-20,1.7,3,x,2.0,-0.8
COC(=O)C1=C(C)NC(=O)NC1c1ccc(N2CCC(c3ccccc3)=N2)cc1 (centres undefined),i,-3.6,0.72,-28,-49,9.5,25,-8,-270,2.9
O=C(c1cnccn1)N1CCN(c2ccccc2)CC1,i,-33,0.65,8,8,-7.0,-8,-3,6.5,-0.5
CCOc1ccc(N(CC(=O)OC)S(=O)(=O)c2c(C)noc2C)cc1,i,-1.3,0.74,-3,-4,1.1,-6,0,3.6,-0.6
COC1CC(C)NC(=S)N1 (centres undefined),i,-5.7,0.7,14,11,0.0,-6,-1,2.2,0.4
CC(=O)OC(C)(C)C#CCN1CCCC1,x,x,0.72,x,x,x,-41,-4,1.9,0.2
O=C(N/N=C/c1ccc2c(c1)OCO2)C1COc2ccccc2O1 (centres undefined),i,2.2,x,-10,-5,4.2,-6,x,x,-0.4
O=c1[nH]c(CSc2ncc(-c3ccc(F)cc3)n2Cc2ccco2)nc2ccccc12,x,x,0.64,x,x,x,10,-2,0.0,-0.5
O=C(CCC1CCCN(c2ncccn2)C1)NCc1ccc(F)c(F)c1 (centres undefined),i,0.0,0.71,-3,-10,-2.5,-2,-10,0.7,-0.2
CC(C)CC(=O)Nc1nc2ccc(S(C)(=O)=O)cc2s1,i,-1.5,0.7,-2,4,-10,-11,0,2.8,-0.1
CCN(C(=O)c1ccc(S(=O)(=O)N2CCOCC2)cc1)C1CCS(=O)(=O)C1 (centres undefined),i,9.8,0.67,2,18,-3.2,1,x,-1.5,x
N#CCc1ccc(OC(=O)c2cccnc2)cc1,i,-8.4,0.69,12,-7,1.4,-9,-1,3.8,0.3
CCn1ccnc1CN1CCC(CO)(CCOc2ccccc2)CC1,x,4.3,0.68,18,14,0.7,-3,-5,0.9,0.4
CCCn1c(N)c(C(=O)CSc2nnc(Cc3ccccc3)o2)c(=O)n(C)c1=O,x,x,0.73,x,x,x,12,15,2.3,-0.8
Cc1cc(=O)n(C(NC(=O)c2ccccc2)C(=O)c2ccccc2)cn1 (centres undefined),x,x,0.68,x,x,x,-9,x,0.9,1.2
Cc1ccccc1C(=O)NC1CCN(C(=O)Nc2ccccc2Cl)CC1,i,9.9,0.68,10,11,1.0,-3,-5,1.3,-0.1
O=C(N/N=C/c1cc2c(cc1[N+](=O)[O-])OCO2)c1ccccn1,i,11,x,7,5,-4.3,-21,0,x,-0.2
O=C(C[C@@H]1C/C=C\C[C@H](NC(=O)OCC2c3ccccc3-c3ccccc32)C(=O)OC[C@H]2CCCN2C1=O)N[C@H](CO)Cc1ccccc1,i,1.5,0.68,11,6,5.7,x,26,0.1,-0.5
CC(NC(=O)C(=O)N/N=C/c1ccc(Cl)cc1)c1ccccc1 (centres undefined),i,-0.4,x,12,12,-3.3,-1,3,x,1.7
N#Cc1c(-c2ccccc2)nc(N2CCCCCC2)[nH]c1=O,x,x,0.75,x,x,x,7,1,-49,0.0
CC(C)Cc1ccc(CN2CCCC(NC(=O)CSc3nncn3C)C2)cc1 (centres undefined),i,-0.3,x,12,-2,3.0,55*,2,x,0.1
O=C(COC(=O)COc1ccccc1Cc1ccccc1)Nc1cccnc1Cl,x,x,0.68,x,x,x,-14,-1,-1.0,-0.6
Cc1ccc(C)c(NC(=S)c2nc3ccccc3s2)c1,i,0.6,0.69,10,15,2.7,-9,14,2.8,-0.7
O=C(CSc1nnc2ccccn12)c1ccccc1,i,-1.5,0.64,4,4,-0.7,6,-3,0.9,-1.7
CCOc1ccc2nc(N/C(N)=N/C(=S)Nc3cccc(OC)c3)nc(C)c2c1,i,3.9,0.62,9,15,-0.8,44,-3,-5.6,-0.6
CCC(C)c1ccccc1OCCCCN1CCCC1 (centres undefined),x,x,0.63,x,x,x,35,-2,31*,-0.6
CCn1c(COc2ccc(C)cc2)nnc1SCc1nc2ccccc2[nH]1,x,x,0.74,x,x,x,16,-10,-0.9,-0.5
CCOc1ccc(/C=N/N2C(C)CCCC2C)cc1 (centres undefined),i,-6.0,x,11,9,-2.4,12,-3,x,0.9
O=C(CNc1ccccc1)NN=C1CCCC1,i,-20,0.64,8,5,-0.4,-16,-1,4.1,0.2
COc1ccc(OC)c(/C=N/NC(=O)CNC(=O)c2ccc(S(=O)(=O)N3CCCC3)cc2)c1,i,-9.2,x,8,8,-1.7,-7,-3,x,0.7
O=C(c1ccc(COc2c(F)c(F)c(F)c(F)c2F)o1)N1CCN(Cc2ccc3c(c2)OCO3)CC1,x,x,0.69,x,x,x,12,4,3.0,0.0
Cc1nnc(SCC(=O)NC2CCCc3c2cnn3-c2ccc(F)cc2F)o1 (centres undefined),i,-3.0,0.73,3,12,1.2,4,-4,0.8,-0.7
COCCNC(=O)C(c1ccc(C)o1)N(C(=O)Cn1nnc2ccccc21)c1ccccc1 (centres undefined),i,-1.3,0.71,7,7,-1.0,-6,-2,4.8,1.3
Cc1ccc(NS(=O)(=O)c2cc(C(=O)N(C)C3CCN(C)CC3)ccc2Cl)cc1Cl,i,1.7,0.7,2,-1,0.5,x,0,2.8,0.7

# Not all compounds are listed; rates above refer to the full screens.
